KSHV LANA nucl = LANA-nucleosome interaction inhibition. z-score (test concentration not listed). AID 720717. FITC-LANA1-23 / chicken nucleosome fluorescence polarization; active compounds read low. hit rate 0.3% among 51,000;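 active means both repeat wells score below -2 in polarization z-score versus plate sample wells, excluding overly bright wells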;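 further: 100 nL library stock added to about 30 µL; numbers are from one replicate; some results filed as inactive read as strong as hits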
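test system = FITC-LANA peptide and chicken nucleosomes | amount = 240 nM purified chicken nucleosomes (480 nM peptide binding sites), final | reagent = 50 nM FITC-LANA1-23 probe | medium = TEN-BT buffer, pH 7.5 | doses = single compound addition by pin transfer, 100 nL per well | timing = 10–45 min, room temperature | detection = fluorescence polarization | repeats = duplicate plates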
Ab BasE inh = blocks the Acinetobacter baumannii siderophore enzyme BasE. inhibition, % (test concentration not listed). hit rate 0.1% among 84,000. AID 485350. purified BasE, fluorescence polarization binding displacement;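 active means both replicates above 25% with normal brightness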;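 further: 0% = negative plate control signal and 100% = positive plate control signal; stock transfer was 100 nL into about 30 µL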
* hit, by the source's call; / = no result given; & = joins results of further samples. Some of the compounds tested; count on the stated rates, not on these rows.

SMILES	KSHV LANA nucl	Ab BasE inh
N=c1occ(C(=O)c2cc(Cl)ccc2O)cc1C(=O)NC1CC1	/	0.3
Cc1ccccc1C(=O)Oc1ccc(C#N)cc1	0.0075	-0.8
N#Cc1c(N2CCCC(O)C2)nc(N)c2c(N)nc3c(c12)CC(=O)N3C12CC3CC(CC(C3)C1)C2 (stereo not given)	/	1.6
CN1c2ccccc2-c2nc(SCC(=O)c3ccc4c(c3)OCO4)ncc2S1(=O)=O	0.2	-2.2
CC(=O)Nc1ccc(OC(=O)c2cccs2)cc1	-0.65	1.4
Cn1c(O)c(C2=c3ccccc3=NC2=O)c2ccccc21	-2.1	0.5
CC(C)(C)C(=O)Nc1cccc(-c2cc(-c3c(Cl)cccc3Cl)no2)c1	/	2.4
COC(=O)CC1C(=O)NCCN1C(=O)c1ccc(Cl)cc1 (stereo not given)	/	2.6
CC(C)c1ccc(-c2c3c(nc4ncnn24)-c2ccccc2C3=O)cc1	0.32	3.0
S=C(Nc1ccccc1)N1CCn2cccc2C1c1cccs1 (stereo not given)	0.27	3.7
CN1C(=CC#N)N(C)c2ccccc21	/	1.8
CC(OC(=O)c1nsc(Cl)c1Cl)C(=O)NCc1cccs1 (stereo not given)	1.6	-1.1
CCC(CC)C(=O)Nc1nc(-c2ccccc2)cs1	-0.27	1.0
CCCCC#Cc1cncc(C(=O)O)c1	1.1	0.0
COc1ccc(Br)cc1CN(C)C(=O)c1ccno1	/	2.5
COc1ccc(CC(=O)Nc2cccc(-c3ccc4nncn4n3)c2)cc1	1.6	-0.5
Cc1ccc(C(=S)N2CCOCC2)cc1	0.81	2.6
Cc1ccn(CCC(=O)N(C)C(C)CCc2ccco2)n1 (stereo not given)	-0.98	0.1
O=C(O)c1cn(-c2ccc(F)cc2)c2cc(N3CCNCC3)c(F)cc2c1=O	0.6&0.067&0.43	1.7
Cn1c(SCC(=O)NC(=O)c2ccc(OC(F)F)cc2)nc2ccccc21	/	-0.3
CCOC(=O)C1CCN(C(=O)Cn2cccc2C(=O)c2ccccc2)CC1	0.33	0.4
O=C(/C=C/c1ccccc1)N1CCC(C(=O)N2CCN(C3CCS(=O)(=O)C3)CC2)CC1 (stereo not given)	/	-0.8
CCC(C(=O)O)n1nnc(-c2ccc(OCc3ccccc3)c(OC)c2)n1 (stereo not given)	0.52	-0.8
CCOC(=O)c1oc2ccccc2c1CSc1nnc(-c2ccco2)o1	/	-1.4
C=CCNC(=S)Nc1cccc(NC(=O)CC(NCc2ccco2)C(=O)O)c1 (stereo not given)	-0.21	3.0
Cc1c(C#N)c(NC(=O)CSc2ccc(F)c(Cl)c2)n(Cc2ccco2)c1C	/	-0.5
O=c1sc2ccccc2n1CCc1ccccc1	-0.26	0.3
CC(C)NS(=O)(=O)c1ccc(CCC(=O)Nc2ccc3c(c2)OCCO3)cc1	1.4	-1.7
COc1cc2c(cc1OC)CN(CC(=O)Nc1ccc3c(c1)OC(F)(F)O3)CC2	/	-0.2
Cc1cc(C)c2cccc(NC(=O)COc3ccc4oc5c(c4c3)CCCC5)c2n1	/	0.2
CC(=O)Oc1ccccc1-c1ccccc1	0.26	1.5
CCOC(=O)c1ccc(NC(=O)C(CC)Sc2nc(N)cc(N)n2)cc1 (stereo not given)	2.8	-2.0
CCN(C(=O)CCN1C(=O)c2ccccc2C1=O)c1ccccc1	1.5	-0.4
O=C(COc1ccccc1)Nc1cccc(C(F)(F)F)c1	/	0.2
O=C(O)C1Sc2[nH]c(=O)sc2C2c3ccc(O)cc3OC(=O)C12 (stereo not given)	/	6.2
CC(C)(C)NC(=O)Nc1ccccc1SCCC#N	-0.32	-1.5
CCOC(=O)/C(=N\O)c1c(C)nn(-c2ccc(F)cc2)c1C	/	0.5
CN(C)CCN(Cc1ccco1)C(=O)c1c2c(nc3ccccc13)C(=O)N(C1CCCCC1)C2	0.27	-2.0
Cc1cc(C)c2cc(C(=O)Nc3ccccc3Cl)[nH]c2c1	/	0.4
Cc1sc(NC(=O)c2ccco2)c(C2=CC(=O)N(c3ccccc3)C2=O)c1C	0.19	-0.8
O=C(NCC(c1cccs1)S(=O)(=O)c1cccs1)NC1CCCCC1 (stereo not given)	-0.58	1.2
O=C(CCC1COc2ccccc2O1)Nc1ccccn1 (stereo not given)	-0.3	-0.9
COc1cc(NC(=O)CC2NC3CCCCC3NC2=O)cc(OC)c1 (stereo not given)	-1.2	1.8
Cc1cccc(C)c1NC(=O)C1(N2CCN(C(=O)c3ccco3)CC2)CCCCC1	0.53	-1.9
O=C(O)C1CC(=O)N(C2Cc3ccccc3C2)C1 (stereo not given)	-1.5	/
CCNCC(=O)Nc1ccc(Br)cc1	/	0.5
CCOc1ncccc1C(=O)OCc1cc(C(=O)OC)c(C)o1	/	14
Cn1nccc1NC(=S)Nc1ccc(Cl)cc1	0.51	3.2
COC(=O)COc1ccc2c(c1)C(=NO)c1cc(OCC(=O)OC)ccc1-2	/	2.4
Cc1cc(NS(=O)(=O)c2ccc(N=Cc3ccccc3O)cc2)no1	/	-0.7
CCc1ccccc1NC(=O)c1cc(C)no1	-1.2	1.5
Cc1ccc(SCCC(=O)O)cc1C	/	3.0
Cc1ccc2c(c1)N(CC(=O)NC(C)(C)C)C(=O)C(C)O2 (stereo not given)	0.16	-2.2
O=C(c1cccc(Cl)c1)N1CCN(S(=O)(=O)c2ccc(Cl)s2)CC1	/	-2.0
CCOC(=O)c1cnn(-c2ccccc2)c1NC(=O)Nc1cccc(Cl)c1	/	2.2
COc1ccc(Cl)cc1S(=O)(=O)n1ccnc1	-0.31	0.3
Cc1ccc(-n2ncc3c(=O)n(CC(=O)N(C)C)cnc32)cc1	-0.43	0.7
N#Cc1cccc(OCC(=O)NCC(F)(F)F)c1	/	-0.7
CS(=O)(=O)N1Cc2ccccc2CC1C(=O)Nc1cc(Cl)ccc1N1CCOCC1 (stereo not given)	/	-0.1
Clc1ccc2c(N3CCCC3)ccnc2c1	0.68	-3.4
Going on with the list:
SMILES	KSHV LANA nucl	Ab BasE inh
O=c1c2c3c(sc2n2cnnc2n1Cc1ccccc1)CCCC3	0.35	-0.9
O=S(=O)(c1ccc(Br)s1)N1CCN(Cc2ccccc2)CC1	1	/
CCc1ccc(NC(=O)CC(C)S(=O)(=O)c2ccc3c(c2)CCN3C(C)=O)cc1 (stereo not given)	-0.011	-3.8
Cc1ccc(C)c(OC(=O)c2ccc(N3CCCC3=O)cc2)c1C	/	-0.3
Cc1ccc(-n2nc3ccc(N)cc3n2)cc1	-1.2	0.2
Cc1ccc(S(=O)(=O)NCCSc2cc(C(F)(F)F)nc3ccccc23)cc1	/	-4.5
Cc1ccc(C)c(S(=O)(=O)N/N=C/c2ccc(N(C)C)cc2)c1	/	2.2
COc1cccc(C(=O)CC#N)c1	/	-0.9
CCC(CC)NS(=O)(=O)c1cccs1	0.49	0.5
O=C(Cn1cncn1)N/N=C/c1cc(Br)ccc1O	/	1.4
N#C/C=C\Oc1ccc(Cl)cc1N	0.63	-0.4
O=C(CSc1ccccc1C(=O)N1CCN(c2ncccn2)CC1)NC12CC3CC(CC(C3)C1)C2	/	-3.4
COCC(C)Nc1nc(-c2ccc(OC)cc2OC)cs1 (stereo not given)	/	1.4
CN(C(=O)CSc1nc(N)nc(N)n1)C1CCCc2ccccc21 (stereo not given)	/	-2.0
Cc1nnc(SCCc2ccccc2)[nH]c1=O	-0.16	-0.6
Cn1c(SCc2ccc(F)cc2)nnc1C1COc2ccccc2O1 (stereo not given)	/	0.4
CC(N/C=C1\C(=O)C2(C)CCC1C2(C)C)c1ccccc1 (stereo not given)	0.75	3.1
O=C(OCC(=O)N1CCc2ccccc21)c1ccccc1	-0.51	0.4
CC(C)(C)C(=O)Nc1ccccc1NC(=O)C(C)(C)C	-0.43	1.4
CN(Cc1cccs1)S(=O)(=O)c1cn(C)c(=O)n(C)c1=O	/	0.4
CC(CCc1ccccc1)NC(=O)NC1CC(=O)N(c2ccccc2)C1 (stereo not given)	-1.2	2.0
COc1cc(S(=O)(=O)NCc2ccc3c(c2)OCO3)c(C)cc1C	-1.3	3.4
O=C(CCCn1c(=O)oc2ccccc21)NCCc1ccc2c(c1)OCCO2	/	0.8
COCCCn1c(C)cc(C(=O)COC(=O)c2cccc(NS(C)(=O)=O)c2)c1C	/	-2.1
CC1=NN(c2nc3ccccc3[nH]2)C(=O)/C1=C/N(C)C	-0.49	0.8
O=C(c1ccc(CS(=O)c2ccccc2Cl)o1)N1CCc2ccccc21 (stereo not given)	-0.11	-1.0
CCCOc1ccc(Cc2c(O)nc(N)[nH]c2=O)cc1C	0.91	-0.4
O=C(NC(C(F)(F)F)C(F)(F)F)OC1CCCC1	/	3.2
CCCCc1cc(=O)oc2c(CN3CCCC3)c(O)c(Cl)cc12	0.6	3.5
CN(C)c1ccc(C(O)c2nnc(-c3ccccc3)o2)cc1 (stereo not given)	/	-0.2
COC(=O)C(C)Sc1cc(C)c2ccccc2n1 (stereo not given)	-0.14	-0.3
O=C1CCC(=O)N1Oc1ncc(C(F)(F)F)cc1Cl	-0.59	/
OCCn1c(-c2ccc(F)cc2)csc1=Nc1cccc(Cl)c1	0.065	0.2
Cc1csc2nc(CSc3nnc4n3CCCCC4)cc(=O)n12	/	0.6
FC(F)Oc1cc(C(F)(F)F)cc(C(F)(F)F)c1	/	0.9
OC1Cc2cccc3cccc1c23 (stereo not given)	-0.65	2.0
O=C1C(=Cc2ccc3c(c2)OCO3)C(=O)c2ccccc21	0.81	-3.3
O=C(Oc1c(CN2CCOCC2)cc(Cl)c2cccnc12)c1ccccc1Cl	/	-0.5
COc1ccc(N2CCN(C(=O)CN(c3cccc(C(F)(F)F)c3)S(C)(=O)=O)CC2)cc1	0.032	1.2
CC(C)S(=O)(=O)/C(C#N)=C/N1CCC(C(F)(F)F)CC1	/	-0.6
O=C(NNc1ccc(F)cc1)c1cc(Cl)nc(OCC(F)(F)F)c1	0.39	1.5
O=C(c1ccc(-c2cccc(C(F)(F)F)c2)o1)N1CCOCC1	0.14	-0.3
CC(C)(C)c1ccc(-c2noc(CSc3n[nH]c(=O)n3C3CC3)n2)cc1	0.61	0.5
Oc1c(/C=N/N2CCOCC2)cc2c3c1CCCN3CCC2	/	-8.9
S=C(c1ccc(-c2ccc(Cl)cc2)o1)N1CCOCC1	-0.85	1.3
COC(=O)CCn1ccnc1C	1.9	-3.3
NS(=O)(=O)c1ccc(Nc2nc3nonc3nc2Nc2ccc(S(N)(=O)=O)cc2)cc1	1.8	-2.5
O=C(CN1CC(=O)Oc2ccccc21)OCC(=O)c1ccccc1	/	1.3
Cc1ccc(C(=O)Nc2cc(C(C)(C)C)nn2C)cc1	/	1.1
COC(=O)c1c(C)oc2ccc(OCC#N)cc12	/	-0.7
Cc1nnc(Nc2cccc(Cl)c2C)s1	/	1.7
COCCNC(=O)c1ccccc1CSc1nc2ccccc2o1	/	-1.1
Cc1ccc(NC(=O)CC2Sc3ccccc3NC2=O)cc1 (stereo not given)	-0.78	0.9
CCOc1ccc(CN(C)CC(=O)NC2(C#N)CCCC2)cc1	/	1.1
CCN(CC(=O)Nc1ccc2c(c1)OCCO2)CC(=O)c1c(C)[nH]c2ccccc12	/	-0.3
CCOC(=O)c1ccc2nc(NC(=O)CSC3=NC(=O)C(CC)C(=O)N3)sc2c1 (stereo not given)	0.57	5.1
CCOC(=O)CSc1nc2ccccc2c(=O)n1Cc1ccco1	/	-11
c1ccc(N2CCN(c3nc4ccccc4n4cnnc34)CC2)cc1	-0.66	0.4
Cc1cccc(N2CCN(CCNC(=O)c3c(C)nn(-c4ccc(F)cc4)c3-n3cccc3)CC2)c1C	-0.28	-2.3
CCCN(C(=O)COc1ccccc1F)c1c(N)n(Cc2ccccc2)c(=O)[nH]c1=O	/	-0.8
The listing continues:
SMILES	KSHV LANA nucl	Ab BasE inh
C=CCOc1cc(C)nc(-c2ccccc2O)n1	-0.43	1.3
CC(C)(C)OC(=O)NC1CCN(S(=O)(=O)c2ccc(Cl)cc2)CC1	0.49	1.7
CC(C#N)Sc1nc(C2CCCCC2)n(-c2ccccc2)n1 (stereo not given)	/	2.6
CC1=C(C(C)C)Nc2nnnn2C1c1ccc(Br)cc1 (stereo not given)	/	-0.8
O=C(O)CNC(=O)c1cc(C(F)(F)F)cc(C(F)(F)F)c1	0.15	-0.5

Screening results deposited in PubChem by ICCB-Longwood Screening Facility, Harvard Medical School.
